Mtb betalactam – beta-lactam sensitization of Mtb H37Rv; M. tuberculosis H37Rv growth with meropenem, percent inhibition; hits of this screen are not shown here; inhibition, % at 25 µM; hit rate 0.27% among 330,000; AID 434955;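 active means about 74% or more and at least 40 points above the plate without the antibiotic, then above 30% in a dose series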;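 further: growth measured after seven days incubation then overnight dye step; 0% = bacteria only wells and 100% = bacteria with antibiotic; twin plates without the antibiotic show which effects depend on it; some results filed as inactive read as strong as hits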
Mtb H37Rv – M. tuberculosis H37Rv growth inhibitors, H37Rv strain (AID 1626) | M. tuberculosis H37Rv growth inhibition; higher % means a stronger effect | inhibition, % at 10 µM, or IC50 in µM where a hit was titrated | hit rate 0.95% among 220,000;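 active means confirmed in a dose series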;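 further: bacteria incubated seven days before Alamar blue readout; 0% = bacteria only wells and 100% = bacteria with antibiotic wells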
Arbovirus anti – arbovirus infection inhibition; arbovirus infection cell-based antiviral screen; inhibition, % at 10 µM; hit rate 0.37% among 200,000; AID 1251;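 active means inhibition from about 30%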;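 further: bluetongue infection of BSR cells; cell survival read as ATP light after 72 h; 0% = infected wells without compound and 100% = uninfected wells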
RecA splice inh – Mtb RecA intein splicing inhibition; P9WHJ3; cell-free RecA intein splicing, fluorescence; inhibition, %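 (about 9 µM by stock and volumes)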; hit rate 0.75% among 290,000; AID 2221; in the data active means inhibition above about 30%;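 further: 0% = vehicle wells and 100% = reference inhibitor control wells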
Target sequence (P9WHJ3 whole entry, looked up, canonical isoform): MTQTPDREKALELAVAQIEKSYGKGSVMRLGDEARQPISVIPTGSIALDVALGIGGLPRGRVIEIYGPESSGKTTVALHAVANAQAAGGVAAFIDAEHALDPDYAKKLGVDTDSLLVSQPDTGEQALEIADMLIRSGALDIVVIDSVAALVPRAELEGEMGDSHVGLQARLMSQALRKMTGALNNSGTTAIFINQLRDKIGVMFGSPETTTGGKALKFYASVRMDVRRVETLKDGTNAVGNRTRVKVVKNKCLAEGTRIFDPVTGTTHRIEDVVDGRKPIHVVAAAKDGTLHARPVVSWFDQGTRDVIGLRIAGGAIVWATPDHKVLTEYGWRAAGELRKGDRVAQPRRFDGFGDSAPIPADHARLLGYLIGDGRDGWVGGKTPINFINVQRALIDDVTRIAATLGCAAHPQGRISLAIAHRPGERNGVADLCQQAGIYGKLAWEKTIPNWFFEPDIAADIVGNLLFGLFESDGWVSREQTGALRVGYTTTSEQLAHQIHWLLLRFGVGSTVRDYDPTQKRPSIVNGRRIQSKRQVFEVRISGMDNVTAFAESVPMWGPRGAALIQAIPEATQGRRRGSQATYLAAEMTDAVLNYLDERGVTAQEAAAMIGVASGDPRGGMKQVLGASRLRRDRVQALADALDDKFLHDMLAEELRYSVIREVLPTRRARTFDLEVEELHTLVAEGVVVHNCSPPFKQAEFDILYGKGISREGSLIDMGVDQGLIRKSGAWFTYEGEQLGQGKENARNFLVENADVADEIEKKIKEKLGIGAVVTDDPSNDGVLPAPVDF
YopH PTP inh – YopH (Yersinia) phosphatase inhibition | hit rate 0.16% among 140,000 | fluorescence Ex485/Em525 | AID 898 | inhibition, %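 (about 10 µM by stock and volumes)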;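 active means inhibition of 50% or more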;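 further: controls were vehicle for no effect and minimum signal wells for full effect; inactives centre near -20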
Arbovirus anti repeat – also measured in Arbovirus anti; calls as there; inhibition, %; measured here: 10K subset replicate screen; many hits read low in the repeat;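 first of two repeat runs on a subset; 0% = infected and 100% = uninfected wells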
Starred values were filed as active, the others as inactive; / = no result given. These rows are one share of the data. The share of hits here may be higher or lower than overall.

SMILES	Mtb betalactam	Mtb H37Rv	Arbovirus anti	RecA splice inh	YopH PTP inh	others
CCOC(=O)C1C2C=CC3(CN(Cc4ccccc4)C(=O)C13)O2 (centres undefined)	-5	-6%	9	10	/
CCN1C(=O)C(CC(=O)Nc2ccc(OC)cc2)N(Cc2cccs2)C1=S (centres undefined)	-3	-3%	17	0.7	-4
CN1C(=O)CC(C(=O)Nc2ccccc2F)SC1=Nc1ccc2c(c1)OCO2 (centres undefined)	-1	11%	-9	-3.0	/
Nc1nccnc1C(=O)OCC(=O)N1CCN(S(=O)(=O)c2ccc(Cl)cc2)CC1	-13	/	/	-2.6	/
O=C(CCS(=O)(=O)c1ccccc1)N1CCOCC1	4	-3%	12	2.5	/
CC(C)CCOc1ccc(/C=C2\CCn3c2nc2cc(C(=O)O)ccc2c3=O)cc1	/	10%	38*	/	/
CN1CCN(c2ccc(N)cc2)CC1	-14	-7%	-14	-4.2	-9
CS(=O)(=O)c1ccc2nc(NC(=O)CCS(=O)(=O)c3ccccc3)sc2c1	5	/	/	-1.4	/
CC1CCc2c(sc3nc(CN4CCN(S(=O)(=O)c5ccccc5[N+](=O)[O-])CC4)[nH]c(=O)c23)C1 (centres undefined)	-4	44%	2	0.7	-25
COc1cccc(C(=O)CC(=O)C(=O)Nc2cc(Cl)c(OC)cc2OC)c1	-3	61%	0	2.1	/
CCOc1ccc(S(=O)(=O)N2CCC(C(=O)NCCc3ccccc3)CC2)cc1	1	/	/	1.3	/
Cc1ccc(NC(=O)C2CCN(C(=O)NCc3ccccc3)CC2)cc1C	-5	/	/	0.0	/
O=C(CN(c1cccc(Br)c1)S(=O)(=O)c1ccccc1)N/N=C/c1cc([N+](=O)[O-])ccc1O	2	/	/	33*	/
CCCn1nc2ccccc2c1P(=O)(N1CCOCC1)N1CCOCC1	-7	-4%	-1	-0.8	-44
COc1ccc(OC)c(NC(=O)CCNC(=O)c2ccco2)c1	3	/	/	-0.2	/
CCn1cc(C(=O)N[C@@H](C)C(=O)NCCCn2ccnc2)c(=O)c2cc3c(cc21)OCO3	5	/	/	-2.0	/
NC(N)=Nc1ccc(N=C(N)N)cc1	12	-15%	/	2.3	/
Nc1c(N=O)c(=O)[nH]c(=O)n1-c1ccccc1	-4	/	/	-5.4	/
Cc1ccc(-c2cc(C(=O)Nc3c(C)n(C)n(-c4ccccc4)c3=O)no2)cc1	42	-6%	-4	-3.0	/
O=C(COC(=O)CCSc1ccccc1)NCc1ccc(F)cc1	10	-8%	1	1.7	/
O=S(=O)(c1ccccc1)c1nc(-c2ccco2)oc1Nc1ccccc1	-8	2%	-2	2.8	-21
COc1ccc(-n2c(C)cc(-c3csc(NC(=O)c4ccc(S(=O)(=O)N(C)C)cc4)n3)c2C)cc1	34	6%	5	1.1	-20
Cc1cc(C)cc(NC(=O)N(CCC#N)Cc2cccs2)c1	-3	7%	/	7.7	/
CCN(CC)CCOCCOC(=O)C(CC)(CC)c1ccccc1	-19	0%	/	2.6	/
C=CCN1C(=Nc2ccccc2)SC/C1=C\C(=O)OC	8	4%	11	9.0	-46	Arbovirus anti repeat=-1
O=C(CS(=O)(=O)Cc1ccccc1)NCc1ccco1	-3	-6%	13	-1.3	/
CCCSc1nc2c3c(sc2c(=O)[nH]1)CC(C)(CC)OC3 (centres undefined)	-16	-18%	-2	-2.2	/
NNC(=O)c1cccc(O)c1	/	-2%	-6	-3.7	5
CCOC(=O)CCCCC(=O)NC(CO)C(=O)NC (centres undefined)	-1	-3%	5	-1.6	-31
O=C(COC(=O)c1cccc(S(=O)(=O)N2CCOCC2)c1)NCCc1ccccc1	-2	/	/	-0.3	/
O=C(CSc1nnnn1-c1cccc2c1CCCC2)N1CCOCC1	0	-4%	-3	-1.4	-52	Arbovirus anti repeat=-2
CCn1cc(CN2CCC(Oc3ccc(C(=O)N4CCCCC4)cc3)CC2)cn1	-16	/	/	-1.1	/
O=Cc1cccn1-c1ccccc1	-1	11%	/	0.2	/
COc1ccc(-c2cc(C(F)(F)F)nc(SCCC(=O)N3CCN4CCCC4C3)n2)cc1 (centres undefined)	-15	3%	17	/	-25
CCOc1ccc(NC(=S)NCCCN2CCN(C3CCCCC3)CC2)cc1	-12	0%	12	0.4	-11
CCOC(=O)c1nnn(-c2nc(OC)nc(N3CCCCC3)n2)c1-c1ccccc1	/	3%	5	/	12
CCN(CC)C(=O)c1ccc(NC(=O)c2cn(-c3ccccc3)nc2-c2ccc(OC)cc2)cc1	0	/	/	4.1	/
O=C(CSc1nc2ccccc2c(=O)[nH]1)c1cccs1	-27	-5%	3	1.1	-31
O=[N+]([O-])c1cccc(-c2cc3cccc[n+]3cc2-c2cccc([N+](=O)[O-])c2)c1	5	16%	6	0.9	-15
COc1ccc(-n2c(=O)c3c4c(sc3n(CC(=O)NCC3CCCO3)c2=O)CCCC4)c(OC)c1 (centres undefined)	8	-3%	2	0.9	/
CCCn1nc(C(=O)N2CCCc3ccccc32)c2ccccc2c1=O	-9	6%	-5	-0.7	/
Cc1onc(-c2ccccc2)c1C(=O)N1CCN(c2ncccc2C(F)(F)F)CC1	-3	/	/	2.6	/
Cc1sccc1C1C(C#N)=C(N)SC(N)=C1C#N	-7	/	20	-15	14
CCN1CCN(c2cc(C)c3cc(NC(=O)CCC(=O)Nc4ccc(OC)cc4OC)ccc3n2)CC1	-7	/	/	-2.3	/
O=C(COC(=O)CCC1CCCC1)Nc1nc2c(F)c(F)c(F)cc2s1	-2	6%	5	0.8	1
Cc1cccc2cc(C(c3nnnn3Cc3ccc4c(c3)OCO4)N3CCCC3)c(=O)[nH]c12 (centres undefined)	-12	-1%	-5	-5.4	-32
COc1ccccc1C1C(C(N)=O)=C(C)Nc2ncnn21 (centres undefined)	9	1%	4	2.3	-25
O=C(Nc1ccc2c(c1)OCO2)N1CCN(Cc2ccco2)CC1	-8	6%	2	-2.1	/
O=C(Nc1cccc2ccccc12)N(CCO)C1CCS(=O)(=O)C1 (centres undefined)	6	/	/	0.0	/
COc1ccc(N/C=C(\C#N)S(=O)(=O)c2ccc(Cl)cc2)c(OC)c1	-2	/	/	4.5	/
Oc1ccc(N=Nc2ccccc2)cc1	88	/	/	3.1	/
CCO[C@H]1OC(C(=O)NC2CC2)=C[C@@H](c2ccccc2)[C@@H]1CCCO	-6	-15%	/	1.4	/
CCN(C(=O)CN1CCN(c2ccccc2O)CC1)c1c(N)n(Cc2ccccc2)c(=O)[nH]c1=O	-3	-4%	-1	-2.7	-12
C=CCn1c(-c2ccc(F)cc2)n[nH]c1=S	-3	-4%	3	-1.1	/
CCOC(=O)N1CCN(C(=O)c2cccn3c(=O)c4c5c(sc4nc23)CCCC5)CC1	6	0%	1	-62	/
O=C(COC(=O)CNC(=O)c1cccc([N+](=O)[O-])c1)Nc1ccccc1OC(F)F	0	7%	8	2.5	-22
O=C(CS(=O)(=O)c1cn(Cc2cccc(F)c2)c2ccccc12)N1CCOCC1	-5	2%	5	/	-37	Arbovirus anti repeat=5
CN(C)c1ccc(C(=O)N2CCCC(N3CCN(Cc4ccc5c(c4)OCO5)CC3)C2)cc1 (centres undefined)	2	/	/	-1.3	/
CCC(CC)C(=O)N1CCCC(c2nc(-c3cccs3)no2)C1 (centres undefined)	0	10%	17	1.9	0
O=C(CSc1ncnc2nc[nH]c12)c1ccc(Cl)cc1	87	/	0	0.1	/	Arbovirus anti repeat=4
Other compounds:
SMILES	Mtb betalactam	Mtb H37Rv	Arbovirus anti	RecA splice inh	YopH PTP inh	others
O=C(NC(NC(=S)Nc1ccc(Cl)cc1)C(Cl)(Cl)Cl)c1ccco1 (centres undefined)	-1	-5%	-21	11	-19
COc1cc(/C=C/C(=O)OCC(=O)N2CCC(Cc3ccccc3)CC2)ccc1O	96	60%	11	26	2
CC(C)C[C@H](NC(=O)CCn1nnc2ccccc2c1=O)C(=O)O	-5	-2%	/	-3.3	/
CN1CCN(NC(=O)CN2C(=O)S/C(=C\c3c(Cl)cccc3Cl)C2=O)CC1	-14	-6%	-5	-0.1	/
COc1ccc(C)cc1NC(=O)c1c(C)nn(Cc2ccccc2)c1Cl	56	7%	4	-1.0	-61
Cc1c(C(=O)/C=C/N(C)C)nnn1-c1ccc(F)c(Cl)c1	-2	1%	/	1.0	/
COc1ccc(CC(=O)Nc2nc(C(C)(C)C)cs2)cc1	3	/	/	7.9	/
Cc1cccc(-n2nnc(C(=O)NCc3ccco3)c2N)c1	-5	-8%	-6	1.1	-21
COc1ccc2cc(C(c3nnnn3CCc3ccccc3)N3CCC(O)CC3)c(=O)[nH]c2c1 (centres undefined)	-6	4%	11	/	-29
O=C(Cc1nnc(NC(=O)Nc2ccc(F)cc2)s1)Nc1ccccc1	3	-1%	9	3.5	/
Cc1cccc(N2C(=O)C(CC(=O)Nc3cccc(F)c3)N(CCc3ccncc3)C2=O)c1 (centres undefined)	7	-8%	0	/	/
NS(=O)(=O)c1cccnc1Nc1cccc(Cl)c1	26	2%	-1	-1.4	-10
CCN(CC)C(=O)c1[nH]cnc1C(=O)N[C@@H](CC(C)C)C(=O)OC(C)(C)C	-5	-11%	0	-0.5	/
O=C1[C@@H]2Cc3c([nH]c4ccccc34)[C@@H](c3ccccc3)N2C(=O)[C@@H]2Cc3c([nH]c4ccccc34)[C@@H](c3ccccc3)N12	/	/	-6	/	-26
CC(C)(C)N(Cc1ccccc1)C(=O)COC(=O)Cn1cnc2ccccc2c1=O	8	2%	13	-0.9	/
COc1cc(N(C(=O)Cc2cccs2)C(C(=O)NC2CCCCC2)c2cccc(OC)c2OC)ccc1-n1cnnn1 (centres undefined)	2	10%	2	5.2	3
S=C(Nc1ccc(Cl)cc1)NC1CCCCC1	-5	-4%	/	9.1	/
COc1ccc(N(CC(=O)Nc2ccc(S(=O)(=O)N3CCOCC3)cc2)S(=O)(=O)c2ccccc2)cc1	2	11%	-9	-3.0	-25
CCOC(=O)c1cnn(-c2ccccc2)c1-n1cccc1	-4	-10%	0	1.1	-31
COc1cccc(CNCCSc2nnnn2C)c1OC	-6	0%	2	0.4	-3
Cc1cc(C)n2nc(C(=O)OCC(=O)c3cc(C)n(CC4CCCO4)c3C)nc2n1 (centres undefined)	-5	-11%	16	2.1	/
C/C(=N\Nc1ccc(Cl)cc1)c1ccncc1	94	/	/	18	/
CC(Oc1ccc(F)cc1)C(=O)Nc1cc(S(=O)(=O)N2CCOCC2)ccc1N1CCCC1 (centres undefined)	-1	/	/	-0.3	/
Cc1ccc(-n2c(SCC(=O)N3CCC(C(=O)O)CC3)nc3ccccc3c2=O)cc1C	0	/	/	1.7	/
CCOc1ccccc1NC(=O)CSc1nc2[nH]ncc2c(=O)[nH]1	-7	/	/	-0.9	/
COc1cccc(CC2(CO)CCCN(Cc3sc(N4CCCC4)nc3Cl)C2)c1 (centres undefined)	4	6%	12	2.2	/
COc1ccc(S(=O)(=O)Nc2cccc(C)c2C)c2cccnc12	-2	/	/	-1.9	/
O=C(O)C1CCCN1c1ncccn1 (centres undefined)	-3	-5%	12	-1.9	-17
NS(=O)(=O)c1ccc(NS(=O)(=O)/C=C/c2ccccc2)cc1	10	2%	1	1.6	-8
CC(Nc1ccc(F)cc1)=[N+](C)CCNS(=O)(=O)c1ccc(Cl)cc1	-4	/	/	4.3	/

Among those listed so far, these have a tert-butyl group:
SMILES	Mtb betalactam	Mtb H37Rv	Arbovirus anti	RecA splice inh	YopH PTP inh	others
COc1ccc(CC(=O)Nc2nc(C(C)(C)C)cs2)cc1	3	/	/	7.9	/
CCN(CC)C(=O)c1[nH]cnc1C(=O)N[C@@H](CC(C)C)C(=O)OC(C)(C)C	-5	-11%	0	-0.5	/
CC(C)(C)N(Cc1ccccc1)C(=O)COC(=O)Cn1cnc2ccccc2c1=O	8	2%	13	-0.9	/

Other structures follow:
SMILES	Mtb betalactam	Mtb H37Rv	Arbovirus anti	RecA splice inh	YopH PTP inh	others
CCOC(=O)C1CCN(CC(=O)N(CC(C)C)c2c(N)n(CC(C)C)c(=O)[nH]c2=O)CC1	-3	8%	20	-0.1	/
O=C(Nc1ccc(Cl)cc1)N(CCCN1CCOCC1)Cc1cccs1	-4	3%	1	-0.7	-9
CCCCC(=O)Nc1ccc2c(c1)nc1n2CCOC1	6	3%	-5	1.9	-23
Cc1cc(C)nc(SCc2nnc(SCC(=O)Nc3ccc(Cl)c(C(F)(F)F)c3)o2)n1	8	4%	2	1.4	-23

Arranged by number of heavy atoms (smallest number first): 4 of the compounds above
SMILES	Mtb betalactam	Mtb H37Rv	Arbovirus anti	RecA splice inh	YopH PTP inh	others
O=C(O)C1CCCN1c1ncccn1 (centres undefined)	-3	-5%	12	-1.9	-17
CCCCC(=O)Nc1ccc2c(c1)nc1n2CCOC1	6	3%	-5	1.9	-23
NS(=O)(=O)c1ccc(NS(=O)(=O)/C=C/c2ccccc2)cc1	10	2%	1	1.6	-8
CC(Nc1ccc(F)cc1)=[N+](C)CCNS(=O)(=O)c1ccc(Cl)cc1	-4	/	/	4.3	/

Screens deposited in PubChem BioAssay by several laboratories.
